PINK1 expr mod – changes PINK1 expression | Potency, µM (top dose mostly 76.6 µM), inactives show at the top dose activation (PINK1 increase), most hits filed as activators | hit rate 0.2% among 410,000 | PINK1 immunofluorescence, high-content cytometry, 24 h; active = well fitted activation curve with a large enough effect; inconclusive = small, poorly fitted or top-dose-only effect; inactive = flat fitted curve, though single readings scatter; cell line not stated here;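 note: potency is the fitted concentration of half-maximal effect; % of control where 0% means no effect; nearly all actives have a fitted effect of over 65% in size; a mitochondrial uncoupler was the plate control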
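PINK1 protein level read as immunofluorescence by microplate cytometer in a fixed, stained stable cell line after 24 h exposure to five compound concentrations, with CCCP as control.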
D2 ag – activates the human D2 dopamine receptor; DiscoveRx PathHunter D2 beta-arrestin, luminescence, 90 min; 100% = 57 uM dopamine signal; activation, % (no concentration beside the values); hit rate 0.084% among 360,000; AID 624465; in the data active = activation above about 40%; inconclusive = about 15% to 40%; inactive = below about 15%; note: compound concentration not given in the record; the text of the record calls up to 30% inactive
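DiscoveRx PathHunter D2 beta-arrestin cells (2,100/well) attached overnight, then compound-stimulated 90 min at 37 C in HBSS/10 mM HEPES/0.1% Tween-20 buffer; beta-galactosidase complementation read by luminescence after 1 h at ambient temperature. Dopamine 57 uM final (EC100) as control.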
TRPML1 ag – activates the human TRPML1 channel; Q9GZU1; activation, % (no concentration beside the values); hit rate 0.12% among 410,000; TRPML1-expressing cells, Ca2+ dye fluorescence, FDSS; host cell line not named in the record; reference of the full effect not given here; in the data active = activation above about 50%; inconclusive = about 30% to 50%; inactive = below about 30%; note: 0% is about no effect; the text of the record puts the active cut at 80%
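Tet-induced TRPML1-DL cells, 1,500 per well, cultured overnight, were loaded with a no-wash Ca2+ dye for 45–90 min. Calcium fluorescence was recorded on the FDSS for 110 s after compound addition, before the EC80 agonist (4 uM 54-4) was added.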
Six1-Eya2 blk – Six1/Eya2 interaction inhibition. Q15475+O00167. AlphaScreen GST-Six1/His-Eya2 binding, biochemical; stronger effect = lower value; control for the full effect not named in the record. activity change, % (test concentration not listed). hit rate 0.56% among 360,000; in the data active = activity change below about -65%; inconclusive = about -30% to -65%; inactive = above about -30%; note: % is set by controls: 0 for no effect and ±100 for the full control effect; compound concentration not given in the record
Target sequence (O00167 whole entry, looked up): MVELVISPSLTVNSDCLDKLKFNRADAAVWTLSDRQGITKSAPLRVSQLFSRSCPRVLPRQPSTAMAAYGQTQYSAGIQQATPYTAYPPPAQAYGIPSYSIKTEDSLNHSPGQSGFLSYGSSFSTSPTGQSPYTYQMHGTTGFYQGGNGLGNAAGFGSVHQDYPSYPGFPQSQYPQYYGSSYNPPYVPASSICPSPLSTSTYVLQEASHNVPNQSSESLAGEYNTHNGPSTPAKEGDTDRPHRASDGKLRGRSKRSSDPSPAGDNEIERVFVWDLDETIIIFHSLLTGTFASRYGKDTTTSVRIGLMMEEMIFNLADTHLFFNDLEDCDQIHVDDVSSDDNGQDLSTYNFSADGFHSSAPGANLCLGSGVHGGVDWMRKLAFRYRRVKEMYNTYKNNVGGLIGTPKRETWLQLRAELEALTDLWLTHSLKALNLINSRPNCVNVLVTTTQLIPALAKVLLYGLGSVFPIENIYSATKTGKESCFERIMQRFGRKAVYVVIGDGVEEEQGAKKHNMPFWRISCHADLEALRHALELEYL
Target sequence (Q15475 whole entry, looked up): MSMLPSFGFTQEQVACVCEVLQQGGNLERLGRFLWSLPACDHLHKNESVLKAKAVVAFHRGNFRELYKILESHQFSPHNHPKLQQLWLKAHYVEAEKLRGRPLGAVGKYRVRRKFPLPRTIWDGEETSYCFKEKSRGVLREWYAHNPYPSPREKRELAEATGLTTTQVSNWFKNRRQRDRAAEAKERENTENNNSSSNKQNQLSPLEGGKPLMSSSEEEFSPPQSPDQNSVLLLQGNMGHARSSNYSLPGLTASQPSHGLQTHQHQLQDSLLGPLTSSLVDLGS
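Compounds are tested against tagged Six1 and Eya2 proteins bridged by glutathione donor and nickel acceptor beads; after a one-hour incubation at 37 °C without light, AlphaScreen emission is recorded.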
TRPML1 blocker – inhibitors of human TRPML1 channel; TRPML1-inducible cells, Ca2+ dye fluorescence, FDSS; stronger effect = lower value; inhibition of EC80 agonist-evoked calcium signal; activity change, negative = inhibition, % (no concentration beside the values); hit rate 0.02% among 390,000; AID 624415; in the data active means activity change below about -50%; inconclusive means about -30% to -50%; inactive means above about -30%;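 note: stimulus is agonist 54-4 at its EC80 concentration; % is set by controls: 0 for no effect and ±100 for the full control effect; compound concentration not given in the record; the text of the record puts the active cut at -80%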
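Tet-induced TRPML1-DL cells loaded with Ca8 no-wash calcium dye were read kinetically on FDSS. Compound addition was followed by EC80 agonist 54-4 (4 uM final); inhibition was read over 110 s.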
CtBP-E1A blk – CtBP/E1A binding inhibition. activity change, % (no concentration beside the values). AlphaScreen GST-E1A/His-CtBP binding, 1536-well; stronger effect = lower value; control for the full effect not named in the record. hit rate 0.49% among 340,000; in the data active means activity change below about -65%; inconclusive means about -30% to -65%; inactive means above about -30%; note: % is set by controls: 0 for no effect and ±100 for the full control effect; compound concentration not given in the record
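Homogeneous bead-based format: GST-tagged E1A captured on glutathione donor beads, His-tagged CtBP on nickel acceptor beads; compounds precede bead addition by 2 h at 37 °C.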
Starred values were filed as active, the others as inactive; ? = inconclusive; · = no result given; [ ] = remark or other dose.

Compound	PINK1 expr mod	D2 ag	TRPML1 ag	Six1-Eya2 blk	TRPML1 blocker	CtBP-E1A blk
CCc1ccc(CNCc2cccs2)cc1	6.3%	0.4	-0.6	10	12	0
C=CCn1c(=O)c2ccccc2n2c(SCC(=O)c3ccccc3)nnc12	-1.0%	-3.0	-0.5	-3	18	-2
COc1cc(CC(=O)NNC(=O)c2cccs2)cc(OC)c1OC	-0.2%	1.6	-0.7	-2	0	3
O=C(CNC(=O)c1ccccc1)OCc1cccc([N+](=O)[O-])c1	-1.5%	-2.1	-0.7	0	23	-9
O=C(Nc1cccc(Cl)c1)c1cc(-c2ccc3c(c2)OCO3)on1	1.2%	·	-0.8	·	20	·
Cc1c(N=C/C=C/c2ccccc2)cnn1C	0.6%	-1.6	0.2	-1	-23	3
COCCC(=O)Nc1ccc2c(c1)CN(C(=O)c1ccc(CSC)o1)CC2	1.3%	1.9	-0.3	5	15	26
O=C(CNC(=O)c1ccc(S(=O)(=O)N2CCCC2)cc1)N/N=C/c1ccccc1Cl	3.5%	-2.3	0.3	-3	-8	-5
CCCCC[C@H](C)N1C[C@H](COCc2ccccc2)Oc2cc(N3CCC[C@H]3CO)ccc2S1(=O)=O	0.6%	·	-0.3	-13	·	-9
CCOc1ccccc1C1CC(=O)Nc2cc3c(cc21)OCO3 (configuration not stated)	·	-0.8	0.2	7	12	-3
O=C(CC1C[C@H](C(=O)N2CCOCC2)[C@@]2(CCC3CCCC3)c3[nH]c4ccccc4c3CCN2C1=O)NCc1cccc(C(F)(F)F)c1 (some centres not stated)	-1.1%	-1.9	1.0	3	-6	6
OCC[C@@H]1C[C@H](O)[C@@H](O)[C@@]2(CCc3ccccc3O2)O1	0.3%	-2.0	-0.8	5	-1	8
COC(=O)C(C)Sc1nc2c(c(-c3ccc(OC)cc3)c1C#N)-c1ccccc1C2=O (configuration not stated)	·	0.1	-0.4	-1	23	0
CN1C(=O)Cc2cc(S(=O)(=O)CCC(=O)Nc3ccc(Cl)c(C(F)(F)F)c3)ccc21	0.6%	·	0.0	·	3	·
COC(=S)N/C(=N\S(=O)(=O)c1ccc(Cl)cc1)c1ccccc1	-2.0%	0.0	-0.7	2	-5	2
O=S(=O)(NCCC1=CCCCC1)c1ccc(F)cc1	4.4%	0.2	1.1	11	2	5
CC(=O)N1CCN(C(=S)c2ccc([N+](=O)[O-])cc2)CC1	0.0%	-5.4	1.0	-3	-4	0
CC1=C(C(=O)Nc2cccnc2)C(c2ccc(C)cc2)n2nc(SCc3ccccc3F)nc2N1 (configuration not stated)	0.6%	·	-0.1	·	-14	·
NS(=O)(=O)c1cc(C(=O)OCC(=O)N2CCc3ccccc3C2)ccc1Cl	1.3%	-0.5	-0.9	5	4	·
CCCC(=O)N1CCN(c2ccc(NC(=O)c3ccccc3)cc2)CC1	2.6%	0.3	-0.9	1	29	-3
CCN1C(=O)c2cccc3c(S(=O)(=O)N4CCCC4C(=O)O)ccc1c23 (configuration not stated)	2.8%	-1.3	-1.0	-28	-3	-15
COc1ccc(NC(=O)CN(C)C(=O)c2cc(-c3ccc(OC)cc3)nc3ccccc23)cc1	-3.4%	0.3	2.2	0	15	-26
c1ccc(CN2CCN(C3=Nc4cccc5cccc3c45)CC2)cc1	-1.2%	-3.4	7.1	?	-5	-29
CC(C)(C)OC(=O)N1CCC(Cc2cc(-c3ccc(Cl)cc3)no2)(C(=O)O)CC1	5.6%	2.0	-0.4	-2	-23	5
Cc1ccccc1Cn1c2ccccc2c2cnn(CC(=O)NC3CCCCCC3)c(=O)c21	7.6%	·	1.0	·	-12	·

An excerpt from above in order of formula weight, low to high.
Compound	PINK1 expr mod	D2 ag	TRPML1 ag	Six1-Eya2 blk	TRPML1 blocker	CtBP-E1A blk
COc1cc(CC(=O)NNC(=O)c2cccs2)cc(OC)c1OC	-0.2%	1.6	-0.7	-2	0	3
CCCC(=O)N1CCN(c2ccc(NC(=O)c3ccccc3)cc2)CC1	2.6%	0.3	-0.9	1	29	-3
CCN1C(=O)c2cccc3c(S(=O)(=O)N4CCCC4C(=O)O)ccc1c23 (configuration not stated)	2.8%	-1.3	-1.0	-28	-3	-15

Next section.
mol | PINK1 expr mod | D2 ag | TRPML1 ag | Six1-Eya2 blk | TRPML1 blocker | CtBP-E1A blk
S=C(NCCc1ccccc1)NCC(c1ccco1)N1CCCCC1 (configuration not stated) | -1.8% | -2.2 | 0.5 | -5 | 7 | 0
COCCCNc1ncnc2c1sc1nc(-c3ccco3)c3c(c12)CC(C)(C)OC3 | 8.6% | -3.1 | -0.8 | 4 | -14 | -5
CC(=O)N1C(=O)CC(C)N(C(C)=O)c2ccc([N+](=O)[O-])cc21 (configuration not stated) | 1.2% | -0.9 | -0.6 | -5 | 4 | -11
CCN(CC)S(=O)(=O)c1cccc(-c2nnc(SCC(=O)NC)n2CCc2ccccc2)c1 | -0.9% | -2.7 | -0.8 | 16 | -7 | -2
COC(=O)CCCNC(=O)c1ccc2oc(CCCc3ccccc3)nc2c1 | 0.4% | 4.0 | 0.0 | -3 | 8 | 4
COc1ccc(-c2c[n+]3c(n2-c2ccccc2)CCCCC3)cc1 | -0.5% | -4.9 | 3.3 | 5 | -2 | 4
COC(=O)c1cc2sccc2n1CC(=O)Nc1cccc(SC)c1 | 2.3%[38.3 µM] | -1.5 | 2.3 | 17 | -4 | 52
CCn1cc(C(=O)NCc2ccc(Cl)cc2)c(=O)c2cc(S(=O)(=O)N(C)C)ccc21 | -0.5% | -4.8 | 1.4 | 6 | 14 | 1
N#CCSc1ncnc2sc3c(c12)CCC3 | 1.4% | -5.0 | -0.2 | -7 | 5 | -1
O=C(NCCCN1CCOCC1)c1cc(C(=O)C2CC2)c[nH]1 | 1.6% | -4.5 | -1.2 | 4 | 13 | 6
Cn1c(SCc2ccccc2)nnc1-c1ccc2nonc2c1 | 0.1% | -1.1 | 4.1 | 1 | 21 | 0
CC1=C(C(=O)N2CCOCC2)CC(CC(=O)NCCN2CCOCC2)C(=O)N1Cc1ccc(F)cc1 (configuration not stated) | 2.8% | -5.5 | 0.6 | 2 | 9 | 5
Cc1ccc(/C=N/NC(=O)CSc2nc3ccccc3[nH]2)o1 | 1.3% | -0.9 | 0.2 | -16 | 6 | -23
C[C@H](NC(=O)C1CC(=O)N(c2ccc3c(c2)OCO3)C1)C(=O)NCc1ccco1 (some centres not stated) | -0.5% | 0.0 | -0.2 | 5 | 8 | 1
CCOC(=O)CCc1c(C)nc2cc(-c3ccccc3OC)[nH]n2c1=O | 0.3% | 4.6 | -1.0 | -18 | -9 | -8
O=C(NCCCc1ccccc1)c1ccc(CS(=O)Cc2ccccc2Cl)o1 (configuration not stated) | 0.6% | -4.3 | 0.1 | 3 | 9 | -6
O=C(CNC(=O)c1ccc(Cl)cc1)NCc1ccccn1 | -0.3% | -3.6 | 0.0 | 0 | -6 | ·
COc1cccc(CNC(=O)C(=O)NCC(c2ccco2)S(=O)(=O)c2ccccc2)c1 (configuration not stated) | 0.5% | · | 1.5 | · | 34 | ·
Cc1c(NC(=O)c2ccc(Cl)c([N+](=O)[O-])c2)cccc1-n1cnnn1 | -3.4% | 2.6 | 0.1 | -3 | -10 | -4
O=C(CN1CCN(c2ccc(O)cc2)CC1)Nc1ccc(SC(F)F)cc1 | 1.5% | 1.7 | -0.2 | 3 | -21 | 14
O=C(Cn1c(CN2CCCCC2)nc2ccccc2c1=O)Nc1ccccc1 | · | 2.5 | 3.3 | 4 | 7 | 9
Cc1cccc2nc(-c3cccnc3)c(Nc3ccc(C(C)C)cc3)n12 | -0.4% | · | -0.5 | · | 1 | ·
COc1ccc(C(=O)N[C@H](C(=O)Nc2nc3ccccc3[nH]2)C(C)C)cc1 | 5.6% | -3.1 | -1.3 | 0 | -8 | -1
Nc1ccc2nc(-c3cccnc3)[nH]c2c1 | 4.0% | 0.0 | -0.6 | -29 | -17 | 1
CSc1ccc(/C=C/C(=O)N2CCN(c3ccccn3)CC2)cc1 | 0.6% | 2.9 | 0.5 | 0 | 3 | -2
CSc1ccc(CN(C)CC(=O)NC(=O)NC(C)(C)C)cc1 | -0.2% | -3.3 | 0.2 | -4 | 1 | -2
Cc1cc(C(=O)CCC(=O)NCC(=O)Nc2c(C)cccc2C)c(C)s1 | 4.0% | -0.8 | -0.8 | -7 | -4 | ·
COc1ccc(NC(=O)CSc2nc(C)cc(C(F)(F)F)n2)cc1 | 0.0% | -0.4 | 0.0 | 7 | -7 | -3
CC(C)Cn1c(/C=C/c2ccccc2)nc2ccccc21 | 18% | -6.1 | 0.9 | 35 | -8 | 21
CCOc1cc(CNC(C)(C)CO)cc(Br)c1OCc1ccc(Cl)cc1Cl | ? | -1.2 | 0.9 | -2 | -2 | -6
Cc1nc2ccccc2n1CCc1nc2c3ccccc3nc(=S)n2[nH]1 | 4.1% | -4.8 | 0.8 | -10 | 21 | -11
CCC(CC)c1nnc(NC(=O)c2cc(-c3ccccc3)nc3ccccc23)s1 | 4.7% | -0.6 | -0.4 | -1 | -4 | 9
O=C(C1CCN(S(=O)(=O)c2cnc[nH]2)CC1)N1CCn2c1nc1ccccc12 | 13%[38.3 µM] | -9.3 | -0.4 | 5 | -12 | 3
O=C(NCCCn1ccnc1)C(F)(F)C(F)(F)C(=O)NCCCn1ccnc1 | 1.9% | -3.9 | 1.3 | -25 | -11 | -18
CCc1ccc(CN(C)CC(O)COc2cccc3ccccc23)cc1 (configuration not stated) | 8.4% | 1.8 | -0.4 | -5 | 3 | -8
COc1ccc(CCNS(=O)(=O)c2ccc3c(c2)CCN3C(=O)C2CC2)cc1OC | -1.4% | -2.9 | -1.1 | -7 | 4 | -4
CCC(OC(=O)c1cccs1)C(=O)NC1CCCCC1 (configuration not stated) | 0.4% | -2.9 | 0.9 | 7 | -2 | 1
CCOc1ccccc1NC(=O)N1CCCc2ccccc21 | 2.8% | -3.6 | -0.2 | 3 | 0 | 4
O=C(NC1CCCCC1)C1CCCN(S(=O)(=O)c2ccc(F)cc2)C1 (configuration not stated) | 2.0% | -1.6 | 1.2 | -11 | 26 | 0
O=C1CC(c2ccccc2)Sc2nc(-c3ccccc3)c(-c3ccccc3)n21 (configuration not stated) | 3.0% | -3.0 | 1.5 | -8 | 19 | -7
O=c1[nH]c(=O)n(C2OC(CO)C(O)C2O)c2c1CCCC2 (configuration not stated) | 0.0% | -6.0 | -0.7 | 0 | · | 5
Oc1ccc(Cl)cc1/C=N/c1nccs1 | 5.2%[38.3 µM] | -0.9 | -0.1 | 0 | -3 | -4
O=c1c(N2CCCCC2)coc2ccccc12 | -0.6% | -3.4 | -1.0 | 0 | -11 | 4

Some of these compounds in order of the CtBP-E1A blk value, smallest number first.
structure,CtBP-E1A blk
Cc1nc2ccccc2n1CCc1nc2c3ccccc3nc(=S)n2[nH]1,-11
COc1ccc(CCNS(=O)(=O)c2ccc3c(c2)CCN3C(=O)C2CC2)cc1OC,-4
CSc1ccc(CN(C)CC(=O)NC(=O)NC(C)(C)C)cc1,-2
CCC(OC(=O)c1cccs1)C(=O)NC1CCCCC1 (configuration not stated),1
O=c1c(N2CCCCC2)coc2ccccc12,4

Screening results as filed in PubChem.

Compounds were not picked by outcome, and some 1% of all compounds hit somewhere here.
